Bioassay records from PubChem BioAssay.
VDR inhibitor – Inhibitors of the vitamin D receptor (VDR): qHTS; Vitamin D3 receptor (Homo sapiens), P11473; VDR-SRC2-3 peptide fluorescence polarization, 2 h; Potency, µM, without a hit: max response, negative = inhibition, actives largely listed as inhibitors; hit rate 0.93% among 400,000; AID 504847, 2011; active = well fitted inhibition curve with a large enough effect; inconclusive = small, poorly fitted or top-dose-only effect, or another doubt; inactive = no such curve, though single readings can be large or run the other way; note: series mostly up to about 120 µM
Target sequence (P11473 whole entry, looked up): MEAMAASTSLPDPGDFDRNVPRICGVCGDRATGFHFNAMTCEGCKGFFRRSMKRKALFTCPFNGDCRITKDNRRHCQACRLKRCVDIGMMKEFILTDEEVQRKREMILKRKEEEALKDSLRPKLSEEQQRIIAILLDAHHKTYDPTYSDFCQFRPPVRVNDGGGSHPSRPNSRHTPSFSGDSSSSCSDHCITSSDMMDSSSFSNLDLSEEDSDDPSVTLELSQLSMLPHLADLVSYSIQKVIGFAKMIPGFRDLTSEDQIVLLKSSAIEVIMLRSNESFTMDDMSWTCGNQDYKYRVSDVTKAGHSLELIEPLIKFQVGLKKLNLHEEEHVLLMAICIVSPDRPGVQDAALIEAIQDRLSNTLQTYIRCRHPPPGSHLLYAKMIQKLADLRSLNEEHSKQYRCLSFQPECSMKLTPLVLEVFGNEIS
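Reagent solutions, kept cold and dark, are dispensed first; compounds are then pinned in at 23 nl, plates briefly spun, and incubated 2 h at ambient temperature. Inhibition of VDR–SRC2-3 peptide binding is read by fluorescence polarization.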
Numbers without * were called inactive; ? = inconclusive; & = joins results of further samples; [ ] = dose if it differs, or a comment. % is set by controls: 0 for no effect and ±100 for the full control effect; potency is the fitted concentration of half-maximal effect. A portion of the library; count on the stated rates, not on these rows.

| No. | molecule | VDR inhibitor |
| --- | --- | --- |
| 1 | Cc1ccccc1Nc1cc(C(=O)NC2CCC(C)CC2)c2ccccc2n1 (stereo not drawn) | -18% |
| 2 | CCCC(=O)Nc1ccc(N2CCN(C(=O)CCC)CC2)cc1 | 3% |
| 3 | CN1CCSc2ccc(C(=O)Nc3cccc(F)c3)cc21 | -10% |
| 4 | CCN(CC)S(=O)(=O)c1ccc(OC(C)C)nc1 | -4% |
| 5 | Cc1ccc(S(=O)(=O)c2nnn3c2nc(N2CCCC2)c2sccc23)cc1C | -4% |
| 6 | Cc1ccc(S(=O)(=O)Cc2ccc(C(=O)NCCCN3CCN(C)CC3)o2)cc1 | 30%[activator] |
| 7 | O=C(CCNC(=O)c1ccc([N+](=O)[O-])cc1)NCc1ccco1 | -20% |
| 8 | COc1ccc(CC(=O)NC(C)(C)CC(C)=O)cc1OC | 6% |
| 9 | O=S(=O)(c1ccc(Oc2ccc(S(=O)(=O)N(CCO)CCO)cc2)cc1)N(CCO)CCO | -13% |
| 10 | CCN(Cc1ccncc1)C(=O)c1cc(Br)cc(Br)c1O | -2% |
| 11 | COc1ccc(CC2(CO)CCN(Cc3cnc(-c4ccccc4C)nc3)CC2)cc1 | -6% |
| 12 | CSc1ccc(-c2sc(Nc3ccccc3)n[n+]2-c2ccccc2)cc1 | -12% |
| 13 | Cc1cc(C)c(S(=O)(=O)NNC(=O)C2CCN(Cc3ccccc3)CC2)c(C)c1 | 4% |
| 14 | O=C1N(C2CCCC2)C[C@@H]2C[C@@H](c3cn[nH]c3-c3ccc(Cl)cc3)N3CCC[C@@]123 | -16% |
| 15 | S=C(NC1CCCCC1)NN1CCCCCC1 | -12% |
| 16 | Cc1cccc2cc(CN(CC3CCCO3)C(c3nnnn3Cc3ccco3)C(C)C)c(=O)[nH]c12 (stereo not drawn) | -1% |
| 17 | O=C(Nc1ccc(F)c([N+](=O)[O-])c1)c1cccs1 | -13% |
| 18 | COc1cccc(CNC(=O)COC(=O)c2nn(C)c(=O)c3ccccc23)c1 | -17% |
| 19 | O=C(OCC(=O)N1CCC(Cc2ccccc2)CC1)c1cccnc1Cl | 10% |
| 20 | Cc1ccc(S(=O)(=O)CC(=O)N(CCCN2CCOCC2)c2nc3c(F)cccc3s2)cc1 | -3% |
| 21 | COc1cccc(C(=O)Nc2cc(C)nn2-c2ccccc2)c1OC | 15% |
| 22 | Cc1noc(C)c1S(=O)(=O)N1CCN(Cc2ccc3c(c2)OCO3)CC1 | 1% |
| 23 | C(=C\c1ccccc1)/CSc1nnc(-c2ccncc2)n1Cc1ccco1 | 0% |
| 24 | CCOC(=O)C1=C(C)N(C)C(=O)NC1c1ccccc1OC (stereo not drawn) | -7% |
| 25 | COC(=O)CSc1nc(NC(C)=O)nc(C)c1Br | 2% |
| 26 | CCN(c1ccccc1)S(=O)(=O)c1cc(OC)ccc1OC | -15% |
| 27 | CCc1cccc(C)c1NC(=O)CSc1nnc(-c2cc3cc(Br)ccc3o2)n1CC | 6% |
| 28 | C=Cc1ccc(COc2ccc3oc(-c4ccccc4)c(C(=O)OCC)c3c2)cc1 | -23% |
| 29 | C/C(CC(=O)Nc1ccc2c(c1)OCO2)=N\NC(=O)c1ccccc1N | 4% |
| 30 | Cc1ccccc1CC1SC(N=C(N)N)=NC1=O (stereo not drawn) | -26% |
| 31 | CCN1CCN(C(=O)CS(=O)Cc2nc(-c3cccc(C)c3)oc2C)CC1 (stereo not drawn) | 3% |
| 32 | COc1cccc(CC(NC(C)=O)C(=O)NC2CCN(C(=O)C3CCCCC3)CC2)c1OC (stereo not drawn) | -14% |
| 33 | Cc1ccnc(NS(=O)(=O)c2ccc(NC(=O)/C=C/c3cccs3)cc2)n1 | 24% |
| 34 | Cc1cc(C(=O)Nc2ccccc2)oc(=O)c1 | -9% |
| 35 | Clc1ccccc1-c1nnc2sc(C3COc4ccccc4O3)nn12 (stereo not drawn) | ? |
| 36 | O=C(C1CCN(S(=O)(=O)c2cccs2)CC1)N1CCCC(C(F)(F)F)C1 (stereo not drawn) | 3% |
| 37 | COC(=O)c1cc2sc(Cl)cc2n1Cc1c(C)cc(C)cc1C | -12% |
| 38 | COc1ccc2c(c1)cc(C(O)c1ccccn1)n2S(=O)(=O)c1ccccc1 (stereo not drawn) | 6% |
| 39 | Cc1ccc(N/C(=C\C(=O)c2ccccc2)C(=O)O)cc1 | -22% |
| 40 | Cc1cc([N+](=O)[O-])c(NCCCCCCO)c([N+](=O)[O-])c1 | 4% |
| 41 | CCCCC/C=C\C\C=C/C=C/C=C/[C@@H](SCC(NC(C)=O)C(=O)O)[C@@H](O)CCCC(=O)O (stereo partly drawn) | 9%&-2% |
| 42 | O=C(c1ccccc1F)N1CCN(c2ccc([N+](=O)[O-])cc2-n2cccc2)CC1 | -11% |
| 43 | O=C(Nc1ccn(Cc2ccccc2)n1)c1cccc(Cn2cc([N+](=O)[O-])cn2)c1 | -20% |
| 44 | CCSc1ccccc1C(=O)N1CCN(c2nc3ccccc3s2)CC1 | 7% |
| 45 | CC(=O)c1cnc(-c2ccccn2)s1 | -29% |
| 46 | COc1cccc(NC(=O)CSc2nnc(Cc3ccc(C)cc3)c(=O)n2N)c1 | -11% |
| 47 | Cc1ccccc1OCC(=O)OCc1cc(=O)n2nc(C3CCCCC3)sc2n1 | 12% |
| 48 | C=CCn1c(=NC(=O)c2ccccc2[N+](=O)[O-])sc2cc(S(C)(=O)=O)ccc21 | -12% |
| 49 | CCCCn1c(=O)[nH]c(=O)c2c(C(=O)OCC)cc(-c3ccc(OC(F)F)cc3)nc21 | 10% |
| 50 | CCOC(=O)C1CCN(CC(=O)N2CCc3ccccc32)CC1 | 12% |
| 51 | COc1ccc(NC(=O)c2c(C)noc2C(C)C)cc1S(=O)(=O)N1CCCCC1 | 4% |
| 52 | Cc1sc2nc[nH]c(=O)c2c1-c1ccc(F)cc1 | -13% |
| 53 | O=S(=O)(Nc1nc2cc3c(cc2nc1Cl)OCCO3)c1ccccc1 | -13% |
| 54 | COc1ccc(CCNC(=O)CS(=O)(=O)Cc2nc(-c3ccc(C)cc3)oc2C)cc1OC | -7% |
| 55 | COc1cc(/C=C/C(=O)N2CCN(C)CC2)cc(S(=O)(=O)N2CCc3ccccc32)c1OC | -12% |
| 56 | C=CCn1c(-c2ccccc2)c[nH]c1=S | -2% |
| 57 | Cc1sc2ncnc(SCC#N)c2c1C | 27% |
| 58 | COc1ccc(CCNC(=O)C2CC2)cc1OC | -15% |
| 59 | Cc1nc2nc(SCC(=O)NC3CCC(C)CC3)nn2c(C)c1Cc1ccccc1Cl (stereo not drawn) | 3% |
| 60 | COc1cccc(CNC(=O)CCn2cccn2)c1 | 8% |

Further compounds follow:
| No. | molecule | VDR inhibitor |
| --- | --- | --- |
| 61 | O=C(CC1N=C2c3ccccc3N=C(SCc3cccc(Cl)c3)N2C1=O)NC1CCCCC1 (stereo not drawn) | 7% |
| 62 | CCOC(=O)c1c(C)c(C(=O)NCc2cccnc2)c(C)n1C | -1% |
| 63 | CC(C)(CO)NC(=O)C(Cc1ccccc1)N1C(=O)c2ccccc2C1=O (stereo not drawn) | 0% |
| 64 | N#Cc1cnn2ccc(-c3ccc4c(c3)CCC4)nc12 | 11% |
| 65 | CCCCNc1c(-c2ccc(OC)c(SC(C)CC)c2)nc2ccc(Cl)cn12 (stereo not drawn) | -3% |
| 66 | c1ccc(N2CC[N+]3(CCCC3)CC2)nc1 | 3% |
| 67 | O=C(CSc1nc2c([nH]c3ccccc32)c(=O)n1-c1ccc(F)cc1)Nc1ccc2c(c1)OCO2 | 10% |
| 68 | Cc1ccc(S(=O)(=O)N2CC(O)C[C@H]2C(=O)OCC(=O)Nc2ccc(N3CCCCC3)cc2)cc1C (stereo partly drawn) | -4% |
| 69 | O=C(Nc1ccc(F)cc1)N1CCC(c2nc3c(nnn3Cc3ccccc3Cl)c(=O)[nH]2)CC1 | 20% |
| 70 | C=CCN1C(=O)c2cccc3c(N4CCCCC4)ccc(c23)C1=O | 9% |
| 71 | Cc1cccc(OCC(O)CN2C(C)(C)CC(O)CC2(C)C)c1C (stereo not drawn) | 17% |
| 72 | CCN(CC)S(=O)(=O)c1ccc(N(C)CCc2ccc(OC)c(OC)c2)nc1 | 7% |
| 73 | Cc1ccc(NC(=O)CCCNC(=O)c2ccc(Cl)cc2)c(Br)c1 | -5% |
| 74 | CCc1ccc(NC(=O)CCn2nc(-c3ccccc3OC)c3c(C)cc(C)nc32)cc1 | -1% |
| 75 | Cc1ccc2nc(-c3cccs3)c(Nc3ccc4c(c3)OCCO4)n2c1 | -12% |
| 76 | Cc1ccc(S(=O)(=O)NCCC(=O)OCC(=O)N2CCCC2=O)cc1C | 1% |
| 77 | CC(C)Oc1ccc(CNC(=O)C2CCCN(S(=O)(=O)c3ccc4c(ccn4C)c3)C2)cc1 (stereo not drawn) | 1% |
| 78 | COc1ccc(Oc2ccc(-c3ccn[nH]3)cc2)cc1 | -2% |
| 79 | CCCCn1c(N)c(N(CC(C)C)C(=O)c2ccc(Cl)c(S(=O)(=O)N3CCCC3)c2)c(=O)[nH]c1=O | -10% |
| 80 | COc1ccc(Cc2c3cc(OC)c(OC)cc3cc[n+]2C)cc1OC | -12% |
| 81 | O=C(Nc1ccccn1)c1cc(-c2cccc(Cl)c2)nc2ccccc12 | -13% |
| 82 | Cn1nnnc1SCC(=O)N1CCN(S(=O)(=O)c2ccc(Cl)cc2)CC1 | 3% |
| 83 | CCOC(=O)c1cccc(C2=CC(=O)C[C@H](c3ccc(Cl)cc3)C2)c1 | 13% |
| 84 | Cc1ccc(S(=O)(=O)N2CCC(=O)N(CCOCc3ccccc3C)CC2)cc1 | -19% |
| 85 | CCN(CC(=O)Nc1c(F)cccc1F)C(=O)c1cc(C)nc2ccccc12 | -1% |
| 86 | O=C1c2oc3ccc(F)cc3c(=O)c2C(c2ccc(F)cc2)N1CCCN1CCOCC1 (stereo not drawn) | -28% |
| 87 | COc1cc2c(cc1CC=C(C)C)C(=O)C[C@@H](c1ccc(O)cc1)O2 | 0% |
| 88 | Cc1cc(C)n(-c2nc3c(c(=O)[nH]c(=O)n3C)n2CC(O)COc2ccccc2C)n1 (stereo not drawn) | -19% |
| 89 | CCOC(=O)c1c(C)[nH]c(C(=O)COC(=O)CCC2CCCC2)c1C | -20% |
| 90 | CC(NS(=O)(=O)c1cccc(Cl)c1)C(=O)N(C)C1CCN(C)CC1 (stereo not drawn) | ? |
| 91 | COc1ccc(S(=O)(=O)N2CCN(Cc3cccc(Cl)c3)CC2)cc1 | 8% |
| 92 | COc1ccc(CNC(=O)C(=O)NCC2CCCN2S(=O)(=O)c2cccs2)cc1 (stereo not drawn) | 2% |
| 93 | COc1ccc(NC(=O)N2CC[C@@]3(CCCN(C(=O)c4ccc(OC)cc4)C3)C2)cc1 | -3% |
| 94 | Cc1nn(C)c(C)c1S(=O)(=O)NCc1cccs1 | 8% |
| 95 | CCOc1cc(N2CCOCC2)c(OCC)cc1NC(=O)c1ccccc1C | -21% |
| 96 | COc1ccc(-c2ccc(=O)n(CC(=O)Nc3ccc(Br)cc3F)n2)cc1 | 3% |
| 97 | CC/C(=N\Nc1ccnc2cc(Cl)ccc12)c1ccc(O)cc1 | -4% |
| 98 | COc1ccccc1N(CC(=O)NC(C)(C)C)C(=O)Cn1nnc(-c2ccc(C)o2)n1 | -10% |
| 99 | COc1ccc(C2CC(c3ccccc3O)=NN2c2ccccc2)cc1 (stereo not drawn) | 19% |
| 100 | O=C(CCCN=C1NS(=O)(=O)c2ccccc21)OCc1cc([N+](=O)[O-])cc2c1OCOC2 | -6% |
| 101 | COc1c(N2CCN(C(=S)NCc3ccccc3)C(C)C2)c(F)cc2c(=O)c(C(=O)O)cn(C3CC3)c12 (stereo not drawn) | 6% |
| 102 | CC(C)c1c(C(=O)N/N=C/c2ccco2)nnn1-c1nonc1N | 12% |
| 103 | COc1ccccc1C1(CC(=O)N2CCOCC2)CCOC(C(C)C)C1 (stereo not drawn) | -2% |
| 104 | Brc1cccc(Cn2c(-c3cncs3)nc3ccccc32)c1 | 7% |
| 105 | O=S(=O)(NC(=S)c1ccccc1)c1ccccc1 | -28% |
| 106 | O=S(=O)(NCC(c1cccnc1)N1CCOCC1)c1ccccc1 (stereo not drawn) | -4% |
| 107 | COc1ccc(S(=O)(=O)Nc2ccc3c(c2)CC(=O)N([C@H](C)CO)C[C@H](C)[C@H](CN(C)C(=O)Nc2ccc4c(c2)OCO4)O3)cc1 | -13% |
| 108 | Cc1ccc(Cl)cc1N1CCN(C(=O)Cn2ccc3ccccc3c2=O)CC1 | 0% |
| 109 | c1ccc(-c2cc(-c3ccncc3)nc3ccc4ccccc4c23)cc1 | -10% |
| 110 | COc1cc(C(=S)N2CCC(Cc3ccccc3)CC2)ccc1OCC(N)=O | 21% |
| 111 | COC(=O)c1ccc(N2CCC(C)CC2)c(N)c1 | ? |
| 112 | Cc1c2cn[nH]c(=O)c2c(C)n1-c1ccccc1 | 0% |
| 113 | CCOC(=O)c1c(N)sc2c1CCN(Cc1ccccc1)C2 | 40µM* |
| 114 | Cc1cccc(NC(=O)CSc2nncn2C)c1 | 3% |
| 115 | NC(=O)CCC1NC(=S)N(Cc2ccccc2)C1=O (stereo not drawn) | -7% |
| 116 | CC/C(=N\NC(=O)CSCc1ccc(Cl)cc1)c1ccc2c(c1)OCCO2 | -11% |
| 117 | OC(C#CCCN1CCCCC1)(c1ccccc1)c1ccccc1 | -26% |
| 118 | COc1ccc(CN(C)C(=O)c2cc(-c3ccc(C)cc3C)nc3ccccc23)c(OC)c1OC | -4% |
| 119 | CCC(=O)N1CCc2cc(Br)cc(S(=O)(=O)N3CCC(C(=O)NC(C)(C)C)CC3)c21 | -5%&-7% |
